Screening results deposited in PubChem by Broad Institute.
Calb FLC = C. albicans growth inhibition with fluconazole, primary screen, CaCi-2 strain, Alamar Blue fluorescence. C. albicans CaCi-2 (fluconazole-resistant clinical isolate) + fluconazole, 48 h. 300,000 compounds, 0.57% hits. growth inhibition, % (no concentration beside the values). AID 1979, 2009;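 active = most replicates above 75%; inconclusive = exactly half above 75%; inactive = most below 75%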;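 note: all wells also contain fluconazole at 8 µg/ml as a sub-toxic cotreatment; 0% = median of DMSO wells and 100% = median of geldanamycin control wells; wells of about 8 µL received 7.5 nL stock; the first replicate is given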
T cruzi inh = inhibitors of intracellular T. cruzi growth, primary screen, luminescence, NIH3T3 host cells | T. cruzi beta-gal in NIH3T3, 90 h | inhibition, % (concentration not given with the values) | 300,000 compounds, 1.4% hits;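 active = mean inhibition across valid replicates above about 55%, limit read from the data; inconclusive = mean below that limit but half or more replicates reach it; inactive = mean below it, under half of replicates reach it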;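 note: signal also drops with host cell toxicity which is not excluded here; 0% = plate median of DMSO wells and 100% = zero luminescence signal; higher percent means less beta-gal luminescence so fewer parasites; stock transfer was 50 nL into about 50 µL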
ALR H2O2 inh = inhibitors of human ALR sulfhydryl oxidase, primary screen, biochemical, H2O2 detection, HRP-luminol luminescence, single point; FAD-linked sulfhydryl oxidase ALR (Homo sapiens), P55789; purified ALR, DTT oxidation; inhibition, % (concentration not given with the values); 290,000 compounds, 3.8% hits; AID 485317, 2010;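 active = mean and each replicate at 75% or more; inconclusive = only one of the two met; inactive = neither met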;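 note: stock transfer was 7.5 nL into about 7.5 µL; 0% = neutral wells and 100% = wells with inactivated enzyme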
Target sequence (P55789 whole entry, looked up): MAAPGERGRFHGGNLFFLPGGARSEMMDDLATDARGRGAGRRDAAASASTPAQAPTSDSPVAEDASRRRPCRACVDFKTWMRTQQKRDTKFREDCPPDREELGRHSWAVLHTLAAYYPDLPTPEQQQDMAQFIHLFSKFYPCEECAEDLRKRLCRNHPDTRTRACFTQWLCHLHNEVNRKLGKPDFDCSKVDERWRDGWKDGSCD
MLL AF4-AF9 inh = inhibitors of AF4 peptide binding to AF9, primary screen, biochemical, AlphaScreen, biotin-AF4 peptide, FLAG-AF9, single point. AID 651704, 2012. inhibition, % at 10 µM. 350,000 compounds, 0.47% hits. Protein AF-9 (Homo sapiens), P42568;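 active = every replicate reaching a set inhibition limit, whatever the replicate mean, cut at about 25% in these data; inconclusive = mean inhibition reaches that limit but some replicates miss it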;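 note: 0% = plate neutral control median and 100% = total signal loss; the record names both 10 and 1 µM as test concentration; the first replicate is given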
Target sequence (P42568 whole entry, looked up): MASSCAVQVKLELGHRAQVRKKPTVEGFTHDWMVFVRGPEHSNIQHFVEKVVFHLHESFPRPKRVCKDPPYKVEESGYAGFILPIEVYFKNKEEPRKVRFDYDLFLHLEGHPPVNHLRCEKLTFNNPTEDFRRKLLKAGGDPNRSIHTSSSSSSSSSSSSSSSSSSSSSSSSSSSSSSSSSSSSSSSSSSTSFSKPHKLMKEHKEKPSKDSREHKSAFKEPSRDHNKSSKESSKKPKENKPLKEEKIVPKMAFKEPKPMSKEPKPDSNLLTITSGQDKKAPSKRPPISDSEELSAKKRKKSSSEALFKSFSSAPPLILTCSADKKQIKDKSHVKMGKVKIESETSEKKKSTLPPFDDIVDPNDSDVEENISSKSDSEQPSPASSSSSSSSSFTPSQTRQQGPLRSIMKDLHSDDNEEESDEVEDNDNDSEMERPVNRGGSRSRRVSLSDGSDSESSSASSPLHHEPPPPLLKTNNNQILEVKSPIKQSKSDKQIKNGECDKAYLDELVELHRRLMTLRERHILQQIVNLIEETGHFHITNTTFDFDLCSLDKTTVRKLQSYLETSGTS
rRNA inh HTS = reduced GFP signal of wild-type E. coli, primary screen, bacterial rRNA inhibitor project, GFP/RFP fluorescence, OD600, single point | E. coli WT GFP vs humanized-ribosome RFP mutants, 24 h; hits give low values; DMSO median 0, no signal -100 | GFP signal change (wild-type ribosome), % (test concentration not listed) | 350,000 compounds, 1.6% hits;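 active = significant combined selectivity score with lowered wild-type GFP, culture density cut under 30%, mutant RFP and density less affected; inactive = any of these conditions unmet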; note: one replicate is shown; some compounds called inactive have numbers as strong as hits
RanGTP-Imp inh = inhibitors of RanGTP-importin-beta interaction, primary screen, biochemical, FRET, CFP-Ran, YFP-importin-beta, homogeneous. 300,000 compounds, 1.1% hits. inhibition, % (concentration not given with the values). cell-free CFP-Ran/YFP-importin-beta FRET ratio;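 active = most replicates above 15%; inconclusive = exactly half above 15%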;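 note: 0% = DMSO wells and 100% = Ran loaded with GDP instead of GTP; wells of about 40 µL received 100 nL stock; the first replicate is given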
Beta cell apopt = inhibitors of cytokine-induced beta cell apoptosis, primary screen, luminescence; protection from apoptosis, % (test concentration not listed); 300,000 compounds, 0.8% hits; AID 435005, 2010; INS-1E cytokine-induced death, ATP luminescence, 48 h; percent of positive-control rescue, neutral wells zero;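 active = all replicates at 75% or more, or half of them and the mean; inconclusive = half reach 75% but not the mean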;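 note: 0% = cytokine-treated negative control wells and 100% = positive control rescue; higher means more ATP so stronger rescue from cytokine killing; wells of about 40 µL received 100 nL stock; the first replicate is given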
FGF22 binding = binders of human FGF22 protein, primary screen, FGF22 synaptogenesis inhibitor project, biophysical, thermal shift, single point; recombinant FGF22 thermal shift, SYPRO orange fluorescence; percent of sucrose octasulfate shift, DMSO zero; 340,000 compounds, 1.5% hits; calls only at 9.99 µM; Fibroblast growth factor 22 (Homo sapiens), Q9HCT0; AID 651658, 2012;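 active = melting point raised past a set limit in the mean and every replicate; inconclusive = no clear call; three in four hits are not shown here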
Target sequence (Q9HCT0 whole entry, looked up): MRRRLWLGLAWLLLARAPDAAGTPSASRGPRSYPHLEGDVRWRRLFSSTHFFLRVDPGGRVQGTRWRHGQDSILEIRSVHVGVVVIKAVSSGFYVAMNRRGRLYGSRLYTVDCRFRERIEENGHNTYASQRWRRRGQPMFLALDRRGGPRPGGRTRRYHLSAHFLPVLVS
rRNA inh HTS OD600 = recorded beside rRNA inh HTS, whose call it bears; OD600 change, %; measured here: OD600 growth;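 optical density of the mix in the first replicate; 0 = DMSO median and -100 = no signal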
rRNA inh HTS RFP = also measured in rRNA inh HTS; calls as there; RFP signal change, %; measured here: RFP humanized mutant strains;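 first replicate; 0 = DMSO median and -100 = no signal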
An asterisk follows results filed as active; i = inactive; ? = inconclusive; . = no result given.

Second line of a record: Calb FLC | T cruzi inh | ALR H2O2 inh | MLL AF4-AF9 inh | rRNA inh HTS | rRNA inh HTS OD600 | rRNA inh HTS RFP | RanGTP-Imp inh | Beta cell apopt | FGF22 binding
> COc1ccc(C2CC(=O)c3c(ccc4ccccc34)N2)cc1OC (stereo not given)
    -6 | 5 | -6 | . | . | . | . | ? | 0 | .
> CN(C)CCCn1cnc2c1c(=O)[nH]c(=O)n2Cc1ccccc1
    -8 | -9 | 0 | -7.4 | 5 | 15 | -0.2 | 0.3 | -2 | i
> Cc1ccccc1NC(=O)CSC1=NCCN1
    . | . | 99* | 0.0 | . | . | . | . | -7 | i
> Cc1ccc(C(=O)CSc2nnnn2C(C)C)c(C)c1
    0 | 12 | 31 | . | . | . | . | -1.3 | . | .
> CCCCN1C2=NCCCN2c2ccccc21
    -13 | -18 | 0 | . | . | . | . | 3.1 | -7 | .
> Cc1ccc(N2CC(C(=O)N3CCC(C(=O)Nc4nnc(C(C)C)s4)CC3)CC2=O)cc1 (stereo not given)
    -2 | -6 | 0 | 1.2 | 6 | 8 | -0.8 | -0.2 | 2 | i
> O=C1CCCN1CN(C(=O)c1ccc2c(c1)OCO2)c1cccc(Cl)c1
    13 | -6 | -14 | . | -2 | -3 | -4.1 | -3.1 | . | .
> O=C(CSc1ncccc1C(=O)O)c1ccccc1F
    18 | 6 | 14 | -1.4 | 1 | -2 | 1.7 | -4.3 | . | i
> COc1cc2cc(CCCOC(=O)c3ccc(C#N)cc3)oc(=O)c2cc1OC
    . | . | -12 | 4.1 | -12 | -5 | 2.0 | . | 5 | i
> Cc1nc2ccc(NC(=O)COc3ccccc3F)cc2s1
    3 | -5 | -27 | -5.4 | -13 | -12 | -4.5 | 2.6 | 0 | i
> COc1ccccc1Nc1nc(-c2sc(NC(=O)c3ccc([N+](=O)[O-])cc3)nc2C)cs1
    -2 | 12 | 0 | . | . | . | . | -4.5 | 6 | .
> CC(C)Nc1ccc(C(CC(N)=O)NC(=O)c2ccccc2)cc1[N+](=O)[O-] (stereo not given)
    -4 | -14 | . | 0.1 | 3 | 8 | -1.2 | -1.3 | -3 | i
> CC1CN(CCOc2ccc(Cl)cc2Cl)CC(C)O1 (stereo not given)
    1 | -6 | -8 | 4.5 | . | . | . | 5.1 | -3 | i
> Cc1ccsc1CN(C)Cc1nc(C2CC2)no1
    -12 | -1 | -4 | -2.6 | 1 | 0 | 1.0 | 5.6 | 0 | i
> Cn1c2ccccc2c2nnc(N/N=C/c3ccc(O)cc3)nc21
    0 | 4 | 2 | -4.4 | 3 | 11 | 1.2 | 2.0 | -5 | i
> COc1ccc(O[C@H]2C=C[C@@H](c3ccccc3)O[C@@H]2CO/N=C(\C)CCN2CCc3nc(-c4ccccc4)c(-c4ccccc4)cc3C2)cc1
    18 | 42 | 3 | . | . | . | . | 3.0 | 7 | .
> O=C(CSc1nnc(N2CCOCC2)n1-c1cccc(F)c1)N1CCN(c2ccccn2)CC1
    . | . | . | -1.0 | 6 | 4 | -0.7 | . | -1 | i
> Cc1c(C(=O)N2CCC(C(N)=O)CC2)sc(N)c1C#N
    . | . | 18 | -51 | 10 | 10 | 2.4 | . | -8 | i
> CC1N(O)C(C)(C)C(c2ccccc2)=[N+]1[O-] (stereo not given)
    18 | -12 | -10 | . | . | . | . | -0.8 | 1 | .
> O=C(O)Cc1csc(NC(=O)CSc2nnnn2-c2ccc(O)cc2)n1
    -4 | -6 | -8 | 1.4 | 6 | 3 | -0.2 | 5.0 | -2 | i
> O=[N+]([O-])c1cccc(CN(CCO)Cc2ccccc2)c1
    10 | 3 | -18 | . | . | . | . | -1.4 | 0 | .
> O=S(=O)(N(Cc1ccccc1)[C@H](CO)Cc1ccccc1)N(Cc1ccccc1)[C@H](CO)Cc1ccccc1
    . | . | -2 | -1.5 | 8 | 12 | -8.9 | . | 0 | i
> NC(=O)c1c(NC(=O)CN2CCN(S(=O)(=O)c3ccccc3)CC2)sc2c1CCC2
    -6 | 17 | 5 | 0.3 | -5 | -10 | 4.3 | . | 1 | i
> CC(=O)N(c1nc(CCl)cs1)c1ccc(C)cc1C
    -12 | 3 | -6 | 0.6 | 3 | -2 | -14 | 2.6 | -5 | i
> Cc1c(C)c2ccc(OS(C)(=O)=O)cc2oc1=O
    -2 | 11 | -7 | 0.5 | 12 | 6 | -7.1 | -1.5 | -4 | i
> CC(NC(=O)Cc1ccccc1)c1cc2c(cc1Br)OCCCO2 (stereo not given)
    -31 | 21 | -2 | -6.7 | . | . | . | -1.7 | 2 | i
> CCc1nc2c(c(=O)c3ccccc3n2C)c(=O)n1C1CCCCCC1
    -7 | -6 | 1 | . | . | . | . | 2.5 | 41 | .
> Cc1cccc(OCC(=O)Nc2ccc(N3CCN(C(=O)c4ccccc4)CC3)cc2)c1
    -31 | 7 | -12 | . | . | . | . | 0.3 | 0 | .
> CCN(Cc1ccccc1)C(=O)c1cc(S(=O)(=O)N2CCOCC2)ccc1N1CCCC1
    11 | 6 | -1 | -0.5 | -10 | -13 | 0.5 | 3.0 | -4 | i
> CC(NC(=O)c1ccc(F)cc1)C1CC2CCC1C2 (stereo not given)
    -6 | 2 | 1 | -0.6 | 0 | 4 | -1.2 | -2.7 | -3 | i
> CCC(C)(C)NC(=O)C(c1ccc(OC)cc1)N(C(=O)CCC(=O)Nc1cc(C)on1)c1ccc2c(c1)OCO2 (stereo not given)
    15 | 8 | . | 4.8 | 3 | 7 | -3.9 | -0.3 | 0 | i
> C=CCN(C(=O)c1csnn1)C(C(=O)NC1CCCCC1)c1ccc(F)cc1 (stereo not given)
    -3 | . | . | 0.2 | 2 | -3 | -2.9 | ? | -10 | i
> Cn1c(=O)c2[nH]c(-c3ccccc3O)nc2n(C)c1=O
    65 | -13 | -19 | . | . | . | . | 1.2 | 1 | .
> CCCOc1ccc(C2C(C(=O)OC)=CN(CCOC)C=C2C(=O)OC)cc1
    -1 | 12 | -3 | . | . | . | . | 25* | -1 | .
> O=C(Nc1ccc(Cl)cc1C(=O)NCCN1CCOCC1)c1ccc(Cl)cc1Cl
    7 | 10 | -2 | . | . | . | . | -1.1 | . | .
> N=c1c(C(=O)NCCN2CCOCC2)cc2c(=O)n3ccccc3nc2n1CCc1ccccc1
    1 | 19 | -3 | -1.4 | 2 | 7 | -3.3 | 156* | 6 | i
> CCOC(=O)CCc1c(C)c2c(C)nn(-c3ccccc3)c2[nH]c1=O
    8 | -3 | . | -11 | 3 | 1 | 0.2 | 2.1 | 0 | i
> CCC(C)NC(=O)c1ccc2nc(-c3ccc(OC)c(OC)c3)c(-c3ccc(OC)c(OC)c3)nc2c1 (stereo not given)
    8 | 13 | -3 | -3.0 | 12 | 20 | -1.0 | -5.7 | 8 | i
> Cc1ccc(S(=O)(=O)N(c2nc(N(C)C)nc(N(C)C)n2)n2cnnc2)cc1
    -10 | 7 | 0 | -25 | 1 | 2 | 5.3 | -2.7 | . | .
> Cc1ccc(NC(=O)CSCC(=O)NCCc2ccccn2)c(C)c1
    8 | -9 | . | -0.6 | 7 | 8 | -8.5 | -0.2 | -3 | i
> O=C(Nc1ccc(Oc2cccnc2)cc1)c1cccc([N+](=O)[O-])c1
    -7 | 15 | 2 | . | . | . | . | -0.1 | -2 | .
> COCCNC(=O)COc1ccc(Br)cc1Cl
    -5 | -15 | -5 | . | . | . | . | -2.0 | -6 | .
> CN(Cc1ccccc1)C(=O)c1c[nH]c2ccc(S(=O)(=O)N3CCOCC3)cc2c1=O
    20 | -9 | -7 | . | . | . | . | -2.9 | -2 | .
> CCC(C)N(C(=O)COc1ccc(Cl)c2cccnc12)C1CCS(=O)(=O)C1 (stereo not given)
    -6 | -2 | -4 | 6.7 | 9 | 9 | 0.0 | . | -3 | i

Taken from the entries so far for reference:
Second line of a record: Calb FLC | T cruzi inh | ALR H2O2 inh | MLL AF4-AF9 inh | rRNA inh HTS | rRNA inh HTS OD600 | rRNA inh HTS RFP | RanGTP-Imp inh | Beta cell apopt | FGF22 binding
> CCCOc1ccc(C2C(C(=O)OC)=CN(CCOC)C=C2C(=O)OC)cc1
    -1 | 12 | -3 | . | . | . | . | 25* | -1 | .
> O=C(Nc1ccc(Cl)cc1C(=O)NCCN1CCOCC1)c1ccc(Cl)cc1Cl
    7 | 10 | -2 | . | . | . | . | -1.1 | . | .
> N=c1c(C(=O)NCCN2CCOCC2)cc2c(=O)n3ccccc3nc2n1CCc1ccccc1
    1 | 19 | -3 | -1.4 | 2 | 7 | -3.3 | 156* | 6 | i
> CCOC(=O)CCc1c(C)c2c(C)nn(-c3ccccc3)c2[nH]c1=O
    8 | -3 | . | -11 | 3 | 1 | 0.2 | 2.1 | 0 | i
> CCC(C)NC(=O)c1ccc2nc(-c3ccc(OC)c(OC)c3)c(-c3ccc(OC)c(OC)c3)nc2c1 (stereo not given)
    8 | 13 | -3 | -3.0 | 12 | 20 | -1.0 | -5.7 | 8 | i
> Cc1ccc(S(=O)(=O)N(c2nc(N(C)C)nc(N(C)C)n2)n2cnnc2)cc1
    -10 | 7 | 0 | -25 | 1 | 2 | 5.3 | -2.7 | . | .
> Cc1ccc(NC(=O)CSCC(=O)NCCc2ccccn2)c(C)c1
    8 | -9 | . | -0.6 | 7 | 8 | -8.5 | -0.2 | -3 | i
> O=C(Nc1ccc(Oc2cccnc2)cc1)c1cccc([N+](=O)[O-])c1
    -7 | 15 | 2 | . | . | . | . | -0.1 | -2 | .
> COCCNC(=O)COc1ccc(Br)cc1Cl
    -5 | -15 | -5 | . | . | . | . | -2.0 | -6 | .
> CN(Cc1ccccc1)C(=O)c1c[nH]c2ccc(S(=O)(=O)N3CCOCC3)cc2c1=O
    20 | -9 | -7 | . | . | . | . | -2.9 | -2 | .
> CCC(C)N(C(=O)COc1ccc(Cl)c2cccnc12)C1CCS(=O)(=O)C1 (stereo not given)
    -6 | -2 | -4 | 6.7 | 9 | 9 | 0.0 | . | -3 | i

A portion of the library; the hit share may differ from the screen's.
